# Screens: PubChem, National Center for Advancing Translational Sciences (NCATS)
# SARS PLP yeast: SARS-CoV PLP inhibition in yeast. Potency, µM (titrated, usually from 32.9 µM), for the others: at the highest dose activity, positive = growth rescue. S. cerevisiae expressing SARS-CoV PLpro, growth rescue; control for the full effect not named in the record. AID 485353. 0.19% of 330,000 active; also: 0% is about no effect; nearly all actives have a fitted effect of over 55% in size; growth read by luminescence after 48 h
# Cruzain Triton: inhibitors of Trypanosoma cruzi cruzain with detergent | P25779 | purified cruzain, Z-FR-AMC fluorescence, 0.01% Triton | Potency, µM, for the others: max response, negative = inhibition, hits mostly inhibitors | 0.43% of 200,000 active; active = well fitted curve in the direction sought with a large enough effect; inconclusive = small, poorly fitted or top-dose-only effect, or another doubt; inactive = no such curve, though single readings can be large; an effect the other way counts as inactive or inconclusive;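 also: plate controls were neutral wells for no effect and buffer without enzyme for full effect; nearly all actives have a fitted effect of over 40% in size; top concentration of the series not given in the record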
# Target sequence (P25779 123-467 limits assumed): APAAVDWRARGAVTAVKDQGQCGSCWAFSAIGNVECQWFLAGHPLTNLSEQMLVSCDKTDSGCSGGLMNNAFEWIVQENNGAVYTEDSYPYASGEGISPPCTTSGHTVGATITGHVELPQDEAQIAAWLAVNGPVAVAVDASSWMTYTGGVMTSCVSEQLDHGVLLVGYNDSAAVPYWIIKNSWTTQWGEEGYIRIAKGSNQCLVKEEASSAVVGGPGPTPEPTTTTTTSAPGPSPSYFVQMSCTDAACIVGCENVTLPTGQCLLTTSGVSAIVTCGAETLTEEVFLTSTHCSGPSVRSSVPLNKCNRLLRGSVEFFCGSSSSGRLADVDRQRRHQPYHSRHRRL
#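 15 min RT preincubation of 1.5 nM cruzain with compound, then 2 uM Z-FR-AMC added; kinetic AMC fluorescence, 60 s delta. Triton X-100 0.01%, pH 5.5.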
# MARV entry inh: blocks Marburg virus binding to or entry into cells; AID 540276; 1.8% of 300,000 active; Potency, µM (titrated, usually from 37.8 µM), without a hit: at the highest dose activity change, negative = inhibition, most hits filed as inhibitors; Marburg virus pseudotyped entry inhibition, cell reporter; control for the full effect not named in the record; about a third of the inactives were read at about 46 µM; active = well fitted inhibition curve with a large enough effect; inconclusive = small, poorly fitted or top-dose-only effect, or effect the other way; inactive = flat fitted curve, though single readings scatter; tested in HEK293 cells; about a fifth of its hits are not listed in these tables; also: % is scaled to controls: 0 for no effect and ±100 for the full control effect; luciferase read-out
# NS1 function inh: influenza NS1 inhibition. S. cerevisiae slowed by influenza A NS1, growth recovery by OD600. Potency, µM (top dose mostly 46.1 µM), for inactives: top-dose activity, positive = more growth. 0.4% of 270,000 active; also: actives are rising curves; nearly all actives have a fitted effect of over 50% in size
#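 Recovery from NS1-induced slow growth read by OD600 in budding yeast switched to galactose assay medium (pH 6.0, -URA) at 1:100 dilution. Compound 23 nl per well; the matching strain lacking NS1 serves as control.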
# Lassa entry inh: inhibitors of Lassa virus binding or cell entry. Lassa virus pseudotype entry inhibition, cell reporter; control for the full effect not named in the record. Potency, µM (top dose mostly 37.9 µM), without a hit: at the highest dose activity change, negative = inhibition, hits mostly inhibitors. 1.2% of 300,000 active. AID 540256; active means well fitted inhibition curve with a large enough effect; inconclusive means small, poorly fitted or top-dose-only effect, or effect the other way; inactive means flat fitted curve, though single readings scatter; tested in HEK293 cells; also: % is scaled to controls: 0 for no effect and ±100 for the full control effect; nearly all actives have a fitted effect of over 50% in size; luciferase read-out
# Cruzain inh noDet: blocks cruzain activity in detergent-free assay. purified cruzain, Z-FR-AMC fluorescence, no detergent. 2.3% of 200,000 active. P25779. Potency, µM, for the others: max response, negative = inhibition, usual class: inhibitors; active = well fitted curve in the direction sought with a large enough effect; inconclusive = small, poorly fitted or top-dose-only effect, or another doubt; inactive = no such curve, though single readings can be large; an effect the other way counts as inactive or inconclusive;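 also: plate controls were enzyme without inhibitor for no effect and buffer without enzyme for full effect; nearly all actives have a fitted effect of over 40% in size; top concentration of the series not given in the record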
#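 Purified cruzain at 1.5 nM, pre-incubated 15 min with compound at room temperature in 100 mM sodium acetate pH 5.5, 5 mM DTT, 0.00005% Triton X-100. Reaction started with 2 uM Z-FR-AMC; AMC fluorescence increase over 60 s gives rate.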
# StopGo reporter: lowers the luciferase signal of an FMDV 2A StopGo reporter; Potency, µM (titrated, usually from 57.9 µM), for inactives: top-dose signal change, negative = less light; 1.2% of 410,000 active; human cells with a luciferase reporter of 2A StopGo recoding; control for the full effect not named in the record; active = well fitted falling curve with a large enough effect; inconclusive = small, poorly fitted or top-dose-only effect; inactive = no such curve, though single readings can be large or run the other way; tested in HEK293T cells; also: % is scaled to controls: 0 for no effect and ±100 for the full control effect; nearly all actives have a fitted effect of over 45% in size; luciferase light after 4 h
# RE007 growth inh: less growth of the S. pombe RE007 Vpr strain. S. pombe RE007 Vpr strain, BacTiter-Glo ATP luminescence, 24 h; control for the full effect not named in the record. Potency, µM (doses to about 92.2 µM), without a hit: at the highest dose activity change, negative = less growth. 0.21% of 360,000 active; active = well fitted falling curve with a large enough effect; inconclusive = small, poorly fitted or top-dose-only effect; inactive = no such curve, though single readings can be large or run the other way;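 also: % is scaled to controls: 0 for no effect and ±100 for the full control effect; nearly all actives have a fitted effect of over 50% in size; the assay follows cell death caused by Vpr and the record does not say whether a fall means rescue or toxicity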
#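 Fission yeast RE007 carrying one integrated HIV-1 vpr copy, seeded at OD 0.01 in PMG+AL medium with 23 nL pinned compound. Grown 24 h at 30 degrees; viability read by BacTiter-Glo luminescence after 5 min.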
# * = called active by the depositor; ? = inconclusive; · = not tested or not shown; & = joins results of further samples; [ ] = remark or other dose. Unless noted, calls follow the shape of the dose curve; as a rule, active means well fitted rising curve with a large enough effect; inconclusive means small, poorly fitted or top-dose-only effect; inactive means no such curve, though single readings can be large or run the other way. Potency is read from the fitted curve at half-maximal effect.
SMILES,SARS PLP yeast,Cruzain Triton,MARV entry inh,NS1 function inh,Lassa entry inh,Cruzain inh noDet,StopGo reporter,RE007 growth inh
Cc1cc(C)cc(NC(=S)N2CCC(NC(=O)c3ccccc3C)CC2)c1,0%,·,?,-1%,2%[46.1 µM],·,-15%,15%
O=C1COc2ccc(C(=O)COC(=O)C3CCN(S(=O)(=O)c4cccs4)CC3)cc2N1,-7%,2.6%,?,-2%,-3%,3%,-3%,5%
O=C(Nc1cccnc1)c1ccc(COc2ccccc2Br)o1,-5%,-4.4%,?,-82%,?,4%,-20%,8%
CCN(CC)C(=O)CSc1nnc(-c2ccccn2)n1-c1ccc(C)c(C)c1,4%,0.2%,3%[46.1 µM],-2%,-8%,25%,-7%,8%
Cc1ccc(C(=O)N/C(=C\c2cn(C)c3ccccc23)C(=O)N2CCN(C)CC2)cc1,0%,·,-12%[46.1 µM],-7%,28%[46.1 µM],·,3%,1%
Fc1cccc(Cl)c1C1Nc2cccc3cccc(c23)N1,4%,·,·,-48%,·,·,-14%,-13%
Cc1noc(Cn2c(=O)c3cc4c(cc3n(CC(=O)Nc3ccccc3Br)c2=O)OCO4)n1,·,-1.7%,·,·,11%[46.1 µM],0%,-11%,·
CNC1(C)C2CCC(C2)C1(C)C (stereo not given),·,2.4%,?,3%,7%,-5%,·,·
N#Cc1ccsc1NC(=O)CN(Cc1ccccc1)Cc1ccccc1,-11%,-7.9%,-24%,0%,-2%,4%,?,·
Cc1ccccc1NC(=O)CN1CCC(NC(=O)Nc2ccccc2)CC1,15%,3.3%,-14%,5%,0%,2%,-11%,-1%
COc1cccc(-c2noc(C3CCCN(C(=O)c4ccccc4OC)C3)n2)c1 (stereo not given),4%,·,·,-18%,·,·,17%,5%
Cc1ccc(N2CCN(S(=O)(=O)N(C)C)CC2)c(C)c1,-12%,-4.5%,·,-31%,·,-9%,-16%,-1%
OCC12COC3c4ccccc4C(OC1)N32 (stereo not given),1%,0.8%,-14%,-2%,-10%,-4%,-5%,3%
Cc1sc(-c2cc3ccccc3oc2=O)nc1-c1ccc(Cl)cc1,·,1.3%,·,·,13%[46.1 µM],8%,-3%,·
O=C1CC(=C2c3ccccc3-c3ccccc32)C(=O)N1CCN1CCN(c2cccc(Cl)c2)CC1,·,·,?,·,14%,·,-9%,-24%
Cc1nn(-c2ccccc2)c(C)c1/C=N/O,1%,-1.0%,11%,10%,12%,4%,0%,2%
Cc1cccc(CCNC(=O)CCS(=O)(=O)c2cc3c(cc2Cl)NC(=O)CO3)c1,18%,-9.8%,·,2%,3%[46.1 µM],3%,-21%&-10%,-7%
CN(CC(=O)Nc1ccc(N2CCOCC2)cc1)CC(=O)Nc1ccc([N+](=O)[O-])cc1Br,0%,·,-12%[46.1 µM],·,?,·,-3%,-26%
CCC(O)(CC)C(=O)N/N=C/c1cc(Br)cc(Br)c1O,-4%,·,?,-62%,-4%,·,0%,?
CCOc1ccc(-c2nnn(CC(=O)Nc3ccccc3OC)n2)cc1OCC,8%,6.5%,-10%,-3%,-23%,-6%,-7%,-14%

# Ten consecutive compounds already listed:
SMILES,SARS PLP yeast,Cruzain Triton,MARV entry inh,NS1 function inh,Lassa entry inh,Cruzain inh noDet,StopGo reporter,RE007 growth inh
CNC1(C)C2CCC(C2)C1(C)C (stereo not given),·,2.4%,?,3%,7%,-5%,·,·
N#Cc1ccsc1NC(=O)CN(Cc1ccccc1)Cc1ccccc1,-11%,-7.9%,-24%,0%,-2%,4%,?,·
Cc1ccccc1NC(=O)CN1CCC(NC(=O)Nc2ccccc2)CC1,15%,3.3%,-14%,5%,0%,2%,-11%,-1%
COc1cccc(-c2noc(C3CCCN(C(=O)c4ccccc4OC)C3)n2)c1 (stereo not given),4%,·,·,-18%,·,·,17%,5%
Cc1ccc(N2CCN(S(=O)(=O)N(C)C)CC2)c(C)c1,-12%,-4.5%,·,-31%,·,-9%,-16%,-1%
OCC12COC3c4ccccc4C(OC1)N32 (stereo not given),1%,0.8%,-14%,-2%,-10%,-4%,-5%,3%
Cc1sc(-c2cc3ccccc3oc2=O)nc1-c1ccc(Cl)cc1,·,1.3%,·,·,13%[46.1 µM],8%,-3%,·
O=C1CC(=C2c3ccccc3-c3ccccc32)C(=O)N1CCN1CCN(c2cccc(Cl)c2)CC1,·,·,?,·,14%,·,-9%,-24%
Cc1nn(-c2ccccc2)c(C)c1/C=N/O,1%,-1.0%,11%,10%,12%,4%,0%,2%
Cc1cccc(CCNC(=O)CCS(=O)(=O)c2cc3c(cc2Cl)NC(=O)CO3)c1,18%,-9.8%,·,2%,3%[46.1 µM],3%,-21%&-10%,-7%

# Continuation.
SMILES,SARS PLP yeast,Cruzain Triton,MARV entry inh,NS1 function inh,Lassa entry inh,Cruzain inh noDet,StopGo reporter,RE007 growth inh
O=C(N/C(=C\c1cccc([N+](=O)[O-])c1)C(=O)N1CCCCC1)c1cccs1,1%,-5.7%,-21%,8%,5%,4%,64%[activator],-9%
CCCNC(=O)c1cc(-c2ccc(Br)cc2)on1,?,-0.5%,?,3%,?,?,36%[activator],7%
COc1ccc(NC(=O)c2sccc2C)c([N+](=O)[O-])c1,28%,3.3%,3%[46.1 µM],-8%,21%,-11%,56%[activator],-4%
c1ccc(-c2ccc(C3=Nn4c(Cn5nnc6ccccc65)nnc4SC3)cc2)cc1,3%,-6.8%,?,13µM*,11µM*,?,?,1%
Cc1nnc(SCC(=O)n2c3c(c4ccccc42)CCCC3)s1,-1%,-5.0%,3%,-67%,-14%,?,-13%,0%
COc1ccc2c(c1)CCc1c(C(=O)N3CCc4ccccc4C3)noc1-2,-29%,-7.0%,1%,-39%,18%,1%,37%[activator],-9%
COc1ccc(NC(=O)CSc2ccccn2)cc1,-13%,1.1%,12%,1%,5%,3%,34%[activator],-7%
Cc1cccc(Cl)c1OCCN1CCCC1,-1%,·,1%,-2%,·,·,-25%,-9%
O=C(CN1C(=O)C2C3C=CC(C4CC34)C2C1=O)Oc1ccccc1 (stereo not given),1%,·,·,-2%,·,·,-15%,15%
CSc1nc(C)cc(OCCNS(=O)(=O)c2ccc(C)cc2)n1,·,·,-11%,·,?,·,29%,11%
Cc1ccc(S(=O)(=O)N2CCCCC2)cc1NC(=O)C1CC(=O)N(Cc2ccccc2)C1 (stereo not given),3%,-2.6%,-25%,-5%,3%,?,-4%,8%
CN(C(=O)CSc1nc2ccc(NC(=O)c3ccc(F)cc3)cc2s1)c1ccccc1,·,-5.8%,?,·,?,-4%,?,·
COC(=O)c1ccc(COC(=O)c2cnccn2)cc1,0%,·,?,1%,9%,·,-9%,11%
COCc1cc(C)n(CC(=O)Nc2cccc(C)c2)c(=O)c1C#N,1%,·,·,-1%,·,·,3%,7%
O=C(OCC(=O)N1CCN(c2ccccc2)CC1)c1nc(Cl)ccc1Cl,0%,·,4%,·,-6%,·,?,-24%
CCOC(=O)C1(C)Oc2ccccc2C(C(=O)OC)=C1C(=O)OC (stereo not given),-5%,-0.5%,·,·,·,6%,-18%,1%
COc1ccc(C2=CC3=C(Br)C(=O)C(C)(OC(=O)c4ccc(Cl)nc4)C(=O)C3=CO2)cc1 (stereo not given),0%,-2.5%,4%&4%[14.2 µM],-5%,?,-14%,30%[activator],-20%
Cc1occc1C(=O)NCc1cccs1,-5%,-2.6%,-2%,0%,2%,-1%,-8%,-4%
Cc1[nH]n(-c2ccccc2)c(=O)c1/C=N/O,-2%,5.3%,1%,7%,5%,2%,·,-4%
COc1cc(/C=C(\C#N)c2nc3ccc(C)cc3[nH]2)cc([N+](=O)[O-])c1O,-1%,·,?,1%,7%[46.1 µM],·,-1%,-4%
CC(=O)Nc1ccc(NC(=O)C(c2ccccc2)c2ccccc2)cc1,-4%,·,·,10%,·,·,1%,-3%
Cc1oc(-c2ccccc2)cc1C(=O)Nc1ccc(N(C)C)cc1,-6%,-4.9%,-11%[46.1 µM],-17%,-6%,-25%,-3%,-6%
Cn1nc(C(C)(C)C)c([N+](=O)[O-])c1C(=O)NCCO,2%,-1.8%,1%,8%,0%,-6%,8%,7%
CCOC(=O)/C(C#N)=C\C=C1C=CN(C)C=C1,2%,-24%,?,3%,6%,-27%,14%,-24%
CC(C)(C)c1ccc(OCC(=O)N2CCCCCC2)c(Br)c1,-3%,·,1%[46.1 µM],-42%,?,·,26%,0%
Cc1ccc(N(CC(=O)N2CC(=O)Nc3ccccc32)S(=O)(=O)c2ccc3c(c2)OCCO3)cc1,-19%,-5.1%,7%&7%,5%,?,2%,5%,-4%
COc1ccccc1NC(=O)c1ccc2c(c1)N(CC#N)C(=O)C(C)(C)O2,6%,·,?,-3%,·,·,-12%,3%
CC(C)(C)OC(=O)N1CC=C2C(C#N)=C(N)C(C#N)(C#N)C(c3cccs3)C2C1 (stereo not given),2%,-0.5%,-23%&-23%,-48%,-11%,?,22µM*,14%
Cc1cc2c(cc1C)C(=O)C(=O)N2,·,·,-4%,·,17%,·,-13%,-22%
Cc1ccc(S(=O)(=O)N(C)C)cc1N,-2%,·,11%,·,-11%,·,-6%,34%
CCCCN(CC)CCCNC(=O)c1cc2c(=O)oc3ccc(C)cc3c2s1,·,-4.1%,3%[46.1 µM],·,15%[46.1 µM],-1%,-9%,·
CCOC(=O)C1=C(C)N(CC(C)C)C(=O)C1,0%,·,9%[46.1 µM],-2%,0%,·,0%,5%
